Source: PubChem
rRNA inh HTS: reduced GFP signal of wild-type E. coli, primary screen, bacterial rRNA inhibitor project, GFP/RFP fluorescence, OD600, single point; GFP signal change (wild-type ribosome), % (no concentration beside the values); E. coli WT GFP vs humanized-ribosome RFP mutants, 24 h; active compounds read low; DMSO median 0, no signal -100; AID 720706, 2013; 350,000 tested, 1.6% active;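 active = significant combined selectivity score with lowered wild-type GFP, culture density cut under 30%, mutant RFP and density less affected; inactive = any of these conditions unmet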; also: one replicate is shown; some compounds called inactive have numbers as strong as hits
MLL AF4-AF9 inh: inhibitors of AF4 peptide binding to AF9, primary screen, biochemical, AlphaScreen, biotin-AF4 peptide, FLAG-AF9, single point. inhibition, % at 10 µM. 350,000 tested, 0.47% active. AID 651704, 2012;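 active = every replicate reaching a set inhibition limit, whatever the replicate mean, cut at about 25% in these data; inconclusive = mean inhibition reaches that limit but some replicates miss it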;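 also: 0% = plate neutral control median and 100% = total signal loss; the record names both 10 and 1 µM as test concentration; the first replicate is given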
Target sequence (P42568 whole entry, looked up): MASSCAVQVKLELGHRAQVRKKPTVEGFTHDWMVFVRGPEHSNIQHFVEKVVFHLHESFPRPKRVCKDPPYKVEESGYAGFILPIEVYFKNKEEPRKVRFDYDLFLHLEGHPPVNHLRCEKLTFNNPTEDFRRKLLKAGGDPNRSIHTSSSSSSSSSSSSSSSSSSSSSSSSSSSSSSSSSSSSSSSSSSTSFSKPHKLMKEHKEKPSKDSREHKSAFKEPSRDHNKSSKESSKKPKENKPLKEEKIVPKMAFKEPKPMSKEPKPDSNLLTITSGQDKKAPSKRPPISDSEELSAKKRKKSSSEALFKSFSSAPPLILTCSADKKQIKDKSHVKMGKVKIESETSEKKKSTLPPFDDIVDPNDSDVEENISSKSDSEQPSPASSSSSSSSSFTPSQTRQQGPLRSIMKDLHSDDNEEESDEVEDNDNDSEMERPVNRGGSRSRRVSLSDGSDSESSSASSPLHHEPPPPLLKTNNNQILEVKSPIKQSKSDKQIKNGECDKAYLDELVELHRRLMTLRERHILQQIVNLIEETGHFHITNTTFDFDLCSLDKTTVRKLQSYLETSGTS
Beta apoptosis: inhibitors of cytokine-induced beta cell apoptosis, primary screen, luminescence. AID 435005, 2010. 300,000 tested, 0.8% active. protection from apoptosis, % (test concentration not listed). INS-1E cytokine-induced death, ATP luminescence, 48 h; percent of positive-control rescue, neutral wells zero;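 active = all replicates at 75% or more, or half of them and the mean; inconclusive = half reach 75% but not the mean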;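 also: 0% = cytokine-treated negative control wells and 100% = positive control rescue; higher means more ATP so stronger rescue from cytokine killing; wells of about 40 µL received 100 nL stock; the first replicate is given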
UCH37 inh: inhibitors of human UCH37 deubiquitinase, primary screen, biochemical, Ub-AMC cleavage, fluorescence; 330,000 tested, 0.33% active; Ubiquitin carboxyl-terminal hydrolase isozyme L5 (Homo sapiens), Q9Y5K5; inhibition, % (test concentration not listed); purified proteasome/UCH37;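 active = mean of two replicates above 20%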;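 also: 0% = compound-free wells with enzyme and 100% = wells lacking proteasome; stock transfer was 100 nL into about 20 µL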
Target sequence (Q9Y5K5 whole entry, looked up): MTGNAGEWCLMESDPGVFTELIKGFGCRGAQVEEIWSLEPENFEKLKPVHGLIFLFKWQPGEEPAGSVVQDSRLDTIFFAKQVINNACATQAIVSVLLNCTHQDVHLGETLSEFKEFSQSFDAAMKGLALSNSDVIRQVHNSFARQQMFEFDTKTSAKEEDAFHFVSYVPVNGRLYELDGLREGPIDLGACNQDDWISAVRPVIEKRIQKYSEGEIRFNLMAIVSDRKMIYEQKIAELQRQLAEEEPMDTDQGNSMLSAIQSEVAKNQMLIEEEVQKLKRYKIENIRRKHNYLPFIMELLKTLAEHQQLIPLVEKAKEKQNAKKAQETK
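Material: Human UCH37 enzyme supplied as purified proteasome complex | Schedule: 30 min compound-proteasome preincubation then 25 min substrate reaction, room temperature | Detection: AMC fluorescence from Ub-AMC cleavage, excitation 355 nm, emission 460 nm | Benchmarks: Wells without proteasome as full block, compound-free enzyme plus substrate as uninhibited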
T cruzi inh: inhibitors of intracellular T. cruzi growth, primary screen, luminescence, NIH3T3 host cells. T. cruzi beta-gal in NIH3T3, 90 h. inhibition, % (test concentration not listed). 300,000 tested, 1.4% active. AID 1885, 2009;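 active = mean inhibition across valid replicates above about 55%, limit read from the data; inconclusive = mean below that limit but half or more replicates reach it; inactive = mean below it, under half of replicates reach it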;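 also: signal also drops with host cell toxicity which is not excluded here; 0% = plate median of DMSO wells and 100% = zero luminescence signal; higher percent means less beta-gal luminescence so fewer parasites; stock transfer was 50 nL into about 50 µL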
FGF22 binding: binders of human FGF22 protein, primary screen, FGF22 synaptogenesis inhibitor project, biophysical, thermal shift, single point | calls only at 9.99 µM | 340,000 tested, 1.5% active | recombinant FGF22 thermal shift, SYPRO orange fluorescence; percent of sucrose octasulfate shift, DMSO zero;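 active = melting point raised past a set limit in the mean and every replicate; inconclusive = no clear call; three in four hits are not shown here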
Target sequence (Q9HCT0 whole entry, looked up): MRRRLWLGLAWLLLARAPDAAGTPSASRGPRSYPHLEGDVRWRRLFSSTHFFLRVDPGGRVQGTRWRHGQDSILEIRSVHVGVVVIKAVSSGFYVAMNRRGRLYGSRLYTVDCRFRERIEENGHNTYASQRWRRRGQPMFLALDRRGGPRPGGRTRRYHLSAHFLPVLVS
Bfl-1 A1 inh: caspase 3/7 activation in MEF A1-2A-BIM cells, primary screen, A1 inhibitor project, cell-based, luminescence, HTS; caspase activation, % (test concentration not listed); 330,000 tested, 0.066% active; AID 2462, 2010; Caspase-Glo 3/7 luminescence, 3 h; percent of clofoctol response, vehicle zero;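 active = over half of replicate activation scores above 10%, or exactly half above 10 with the replicate mean above 10; inconclusive = replicate mean below 10 yet half the replicates above 10; inactive = over half of replicates below 10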;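 also: wells of about 30 µL received 50 nL stock; many hits fall short of the cut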
E coli growth: E. coli growth inhibition, primary screen, OD600; 330,000 tested, 0.21% active; Escherichia coli growth, 23 h; active compounds read low; OD600 absorbance (test concentration not listed);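 active = OD600 absorbance below the run mean of sample wells minus 3.6 SD, in any replicate, cut at about 0.56 in these data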;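 also: stock transfer was 300 nL into about 60 µL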
rRNA inh HTS OD600: further read-out of rRNA inh HTS, marked with its call; OD600 change, %; measured here: OD600 growth;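 optical density of the mix in the first replicate; 0 = DMSO median and -100 = no signal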
rRNA inh HTS RFP: second read-out of rRNA inh HTS, no call of its own (marks repeat the call); RFP signal change, %; measured here: RFP humanized mutant strains;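 first replicate; 0 = DMSO median and -100 = no signal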
* marks the source's active call; other numbers are inactive results; i = inactive; u = inconclusive; x = not tested or not shown. Only part of the results is shown; the hit share may differ from the screen's.

SMILES,rRNA inh HTS RFP,E coli growth,MLL AF4-AF9 inh,UCH37 inh,Beta apoptosis,T cruzi inh,FGF22 binding,rRNA inh HTS OD600,Bfl-1 A1 inh,rRNA inh HTS
CCOC(=O)c1cccc(N2C(=O)C3C4C=CC(CC4)C3C2=O)c1 (stereo not given),0.6,0.63,-2.4,-1.8,-2,-3,i,4,0.4,2
COc1ccc(-c2nc(CSCC(=O)NCCCN3CCCC3=O)c(C)o2)cc1OC,0.6,0.7,-0.4,1.6,5,-6,i,9,0.2,1
COc1ccc(CNC(=O)CCC(=O)N2CCN(S(=O)(=O)c3cc([N+](=O)[O-])ccc3C)CC2)cc1,0.1,0.7,2.9,4.8,x,x,i,1,x,0
Cc1nn(-c2ccccc2)c(Cl)c1C(=O)NCCCCNC(=O)c1c(C)nn(-c2ccccc2)c1Cl,x,0.74,x,0.7,11,-1,x,x,-0.2,x
CCCCCCNc1c([N+](=O)[O-])c(=O)sc2ccccc12,-2.4*,0.73,-3.5,3.9,5,5,i,-12*,-0.3,-24*
COc1ccc(C(=O)Oc2ccc(=O)n(-c3ccccc3)n2)cc1,x,0.72,x,8.4,-4,-7,x,x,0.1,x
O=C(Nc1nnc(C2=COCCO2)o1)c1ccc(Cl)cc1,-27,0.61,u,1.8,4,-7,i,-80,-1.0,-55
COCCNC(=O)c1onc(CSc2ccc(C)c(C)c2)c1C(=O)O,-3.2,0.71,-3.2,3.7,-1,0,i,-4,2.2,-7
O=C(Nc1ccc(S(=O)(=O)Nc2cnc3ccccc3n2)cc1)c1ccc(F)cc1,6.5,0.65,-6.1,-2.9,-2,12,i,3,0.5,9
O=S(=O)(NCCN1CCOCC1)c1ccc(Cl)s1,2.8,0.64,0.4,-3.7,-5,-1,x,7,-0.5,6
CCNc1nc(NCC)n2c(SCC(=O)Nc3ccc(Br)cc3F)nnc2n1,-5.3,0.63,-2.9,1.5,x,-1,i,3,0.4,4
COC(=O)c1ccc(C2NC(=S)N(c3ccccc3)C(C)=C2C(=O)Nc2ccccc2OC)cc1 (stereo not given),x,0.64,x,2.5,3,-1,x,x,0.4,x
N#CCSc1nnc2ccc3ccccc3n12,x,0.71,x,2.4,-2,-3,x,x,0.0,x
O=C(CCC1CCCN(C(=O)C2CCCC2)C1)NCc1ccc(F)c(F)c1 (stereo not given),2.6,0.67,-2.5,0.7,-3,12,i,-6,0.0,-3
S=C(c1cn(CCOc2ccccc2)c2ccccc12)N1CCCC1,x,0.72,x,2.1,37,16,x,x,-0.5,x
O=C(Cn1cccn1)N1CCCC(N2CCN(c3ccccc3F)CC2)C1 (stereo not given),-0.7,x,1.4,x,-1,3,i,12,0.0,16
COc1ccc(N2C(=O)CC(c3ccc([N+](=O)[O-])cc3)C2=O)cc1 (stereo not given),0.3,0.67,0.4,5.7,x,1,i,11,0.8,6
O=C(NC12CC3CC(CC(C3)C1)C2)c1ccc(-c2ccc(Br)cc2)o1,4.2,0.72,-1.0,1.9,18,48,i,-1,0.0,10
Cc1ccc(-c2nnn(CC(=O)N(CCO)C(C(=O)NC(C)(C)C)c3ccncc3)n2)cc1 (stereo not given),0.1,0.7,1.0,0.3,-11,-6,i,-1,0.3,4
CCCS(=O)(=O)c1nc(S(=O)(=O)c2ccc(C)cc2)c(N2CCC(C)CC2)s1,3.6,0.7,0.4,6.0,9,-3,i,-18,-0.8,-10
CCOC(=O)c1c(N/N=C/c2ccncc2)n[nH]c1C,-2.1,x,-1.4,x,-7,-33,i,5,-1.5,5
Cc1ccc(CNC(=O)C2CCN(S(=O)(=O)c3c(C)noc3C)CC2)cc1,x,0.72,x,4.4,3,14,x,x,0.3,x
Cc1ccc(S(=O)(=O)N(C)C)cc1NC(=O)COC(=O)CCC1CCCCC1,1.9,0.62,-0.6,1.8,-3,-9,i,-1,-0.5,0
Cn1nnc2cc(NC(=O)Nc3cccc(Cl)c3)ccc21,2.6,0.69,-2.4,-45,0,11,i,12,-2.0,7
COc1ccc(Cl)cc1C(=O)Nc1ccccc1N1CCN(C(=O)C(C)C)CC1,x,0.65,x,3.7,2,22,x,x,-0.1,x
O=C1c2ccccc2NC(c2ccccc2O)N1O (stereo not given),-0.6,0.64,18,-4.7,6,-10,i,-2,-0.3,-5
CN(C)C(=S)SCCn1c(N)nc(N(C)C)nc1=O,-2.8,0.65,-2.0,-0.4,2,2,i,-7,-0.4,11
COc1cccc(NC(=O)N2CCCC2C(=O)NCc2ccccc2)c1 (stereo not given),-2.9,0.65,-1.1,0.7,0,-11,i,2,0.1,7
CCC(C(=O)Nc1ccc(S(=O)(=O)Nc2ncccn2)cc1)c1ccccc1 (stereo not given),1.9,0.72,-2.9,4.0,0,6,i,12,1.5,2
CN1C[C@@H]2[C@@H]3C(=O)N(C)C(=O)[C@@H]3[C@](C)(C1=O)N2C(=O)c1ccc(F)cc1,2.0,x,-3.2,2.6,x,x,i,4,x,3
Cc1c(C(=O)Nc2ccc3c(c2)OCO3)oc2ccccc12,-9.8,0.64,u,3.4,15,14,i,-41,-3.6,-17
Cc1cc(-c2nn(-c3ccccc3F)cc2CNCCc2cnccn2)c(C)s1,0.4,0.71,6.5,5.8,-10,-1,x,-11,-0.2,-14
OCCC1CN(Cc2cn[nH]c2C2CCCCC2)CCN1C1CCCCC1 (stereo not given),0.6,0.64,1.0,3.2,x,23,x,-5,0.3,11
CN(C)S(=O)(=O)N1CCN(c2ccc([N+](=O)[O-])c(N3CCCCC3)c2)CC1,-1.7,0.65,5.3,5.3,7,21,i,-6,0.0,-10
O=C(N/N=C/c1ccccc1[N+](=O)[O-])c1ccncc1,-8.7,x,1.9,x,1,-4,i,-2,-0.2,-4
Cc1ccc(NC(=O)NC2CCCc3ccccc32)cc1 (stereo not given),-0.2,0.67,-1.0,-4.2,3,-8,i,16,0.9,2
O=C1/C(=C\c2ccc(O)c(O)c2)C(c2ccccc2)=NN1c1ccccc1,-3.9,0.66,14,4.0,x,4,i,-30,x,-30
CCN(CC)CCNC(=O)c1cn(CC)c2cc(N3CCN(C)CC3)c(F)cc2c1=O,-17,0.056*,2.8,-44,-3,8,i,-79,1.0,-50
Cc1cc(C)c(NC(=O)CN2C(=O)NC(CCc3ccccc3)C2=O)c(C)c1 (stereo not given),-0.8,0.64,-0.2,5.4,2,-1,i,16,-1.9,11
COCC1CCN(C(=O)C2CCN(c3nc(-c4ccccc4)nc4c3CCC4)CC2)C1 (stereo not given),1.6,0.64,1.5,-1.8,x,11,i,0,0.6,-4
O=C(NCc1ccc(Cl)cc1)c1ccc(CS(=O)Cc2cccc(Cl)c2)o1 (stereo not given),-1.1,0.68,-1.0,1.3,1,3,i,-50,0.3,-39
CCOC(=O)C1=C(CN2CCCCCC2)NC(=O)NC1c1ccc2c(c1)OCO2 (stereo not given),-1.5,0.7,2.4,3.8,1,0,i,17,1.6,0
O=S(=O)(c1ccc(F)c(F)c1F)N1CCN(c2ncnc3sccc23)CC1,2.8,0.71,-0.2,5.4,87*,x,i,-10,-0.1,-8
CC(=O)Oc1ccc2ccc(=O)oc2c1,x,x,-1.3,x,2,-24,i,x,-0.3,x
Cc1nc(C)c(C(=O)NNS(=O)(=O)c2ccc([N+](=O)[O-])cc2)s1,-1.2,0.73,1.8,4.6,-5,-19,i,7,0.3,5
CC(C)(C)c1ccc(C(=O)Nc2ccc(NC(=O)c3ccco3)cc2)cc1,x,0.68,x,-43,x,9,x,x,0.0,x
O=C1C(=O)N(CCc2c[nH]c3ccccc23)C(c2cccnc2)/C1=C(/O)c1ccccc1 (stereo not given),x,0.66,x,3.6,-3,-19,x,x,0.1,x
O=C(O)C1=C[C@H](c2ccc(F)cc2)C[C@H](OCCCCO)O1,18,x,0.1,1.5,1,1,i,13,0.8,1
O=C(N/N=C/C(Br)=C/c1ccccc1)c1cccs1,2.0,x,3.3,x,2,4,i,7,-6.4,5
COc1ccc(CNC(=O)OCCN2CCN(S(=O)(=O)c3ccc(C)cc3)CCC2=O)cc1,x,0.71,x,0.8,-10,-4,x,x,0.0,x
COC/C=C/C1=CC2=CC(=O)C(C)(OC(=O)c3cnc4ccccc4n3)C(=O)C2=CN1CC(C)C (stereo not given),x,x,x,2.8,-6,-9,x,x,-0.5,x
c1ccc(-c2n[nH]c(-c3ccccn3)n2)cc1,x,0.75,x,0.6,-3,-34,x,x,-13,x
CCc1ccccc1Nc1nc2ccccc2n1C(C)C,-1.6,0.68,-0.9,4.2,-7,-8,i,15,0.5,12
O=C(NC1CC1)c1ccc(-n2cccc2)cc1,-2.2,0.63,-1.7,0.2,5,-8,i,21,-0.3,16
c1ccc(CN2CCC(N=C3NN=C(c4ccc5c(c4)OCCO5)CS3)CC2)cc1,-6.8,0.67,7.3,6.0,-1,41,x,-52,1.6,-44
O=C(c1ccccc1Br)N1CCN(c2ncccn2)CC1,1.0,0.67,-2.0,-0.7,-10,-2,i,8,0.5,-1
CCn1c(C2CC(=O)N(c3ccc(C)c(C)c3)C2)nc2ccccc21 (stereo not given),-14,0.75,-4.6,0.5,13,-2,i,-64,1.2,-23
COC(=O)c1cc(CNC(=O)Cc2ccsc2)ccc1OC,0.1,0.68,2.3,1.1,-3,21,i,16,-1.0,9
CCC(=O)NC(=S)NNC(=O)c1ccc([N+](=O)[O-])cc1,x,0.62,x,11,-4,16,x,x,-0.6,x
COc1ccc(C)cc1Nc1n[n+](-c2ccccc2)c(-c2ccc(NC(C)=O)cc2)s1,x,0.69,x,2.9,4,29,x,x,-1.2,x

New compounds follow.
SMILES,rRNA inh HTS RFP,E coli growth,MLL AF4-AF9 inh,UCH37 inh,Beta apoptosis,T cruzi inh,FGF22 binding,rRNA inh HTS OD600,Bfl-1 A1 inh,rRNA inh HTS
Cc1cc(C)cc(NC(=O)CN(C)S(=O)(=O)c2cccc3nsnc23)c1,x,0.7,x,5.8,3,-3,x,x,0.0,x
O=C(N/C(=C\c1ccc2c(c1)OCO2)C(=O)N1CCOCC1)c1ccccc1Br,-0.7,0.68,-0.9,3.8,-2,-4,i,-3,0.4,-5
CCOC(=O)N1CCC(Nc2c(Nc3cccc(CC)c3)c(=O)c2=O)CC1,x,0.69,x,5.6,13,14,x,x,-0.9,x
CNC(=O)COc1ccc2oc3c(c2c1)CCCC3,0.6,0.72,0.8,3.7,-1,-7,i,-5,0.2,0
